# HSV augment – enhancers of HSV replication in host cells, fold increase, host cell viability | HSV replication augmentation in cells | maximum fold increase | actives 0.005% (n = 220,000) | AID 1956, 2009;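 active = peak rise of 1.5-fold or more in the series; tested in PC3 cells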;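 note: first round at 10 µM; read as green reporter fluorescence; hits show the peak of a series up to 25 µM; 1 = signal of infected wells without compound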
# GALR2 ag – GALR2 receptor agonists, primary screen, cell-based | Galanin receptor type 2 (Homo sapiens), O43603 | AID 803, 2007 | activation, %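 (tested at 5 µM)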 | actives 0.48% (n = 140,000) | GALR2-expressing cells, agonist activation read-out;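 active = above mean plus 3 SD of all compounds, about 5% in these data, not always enough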;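 note: 0% = vehicle buffer wells and 100% = reference agonist at full effect; tested in CHO reporter cells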
# Target sequence (O43603 whole entry, looked up): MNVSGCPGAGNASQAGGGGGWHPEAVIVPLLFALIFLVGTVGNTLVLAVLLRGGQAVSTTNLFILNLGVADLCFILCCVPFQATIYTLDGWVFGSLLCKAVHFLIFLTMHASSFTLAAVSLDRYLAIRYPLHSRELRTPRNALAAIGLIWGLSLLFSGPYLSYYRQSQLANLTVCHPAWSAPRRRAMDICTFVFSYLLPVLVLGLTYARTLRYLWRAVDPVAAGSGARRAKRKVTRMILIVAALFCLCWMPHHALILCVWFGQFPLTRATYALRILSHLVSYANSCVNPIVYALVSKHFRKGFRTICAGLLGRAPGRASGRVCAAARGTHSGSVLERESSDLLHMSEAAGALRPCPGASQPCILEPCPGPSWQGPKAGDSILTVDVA
# RGS16-Gao – modulators of RGS16 binding to Galphao, primary screen, biochemical, human proteins, multiplexed bead flow cytometry; actives 0.38% (n = 220,000); Regulator of G-protein signaling 16 (Homo sapiens) + Guanine nucleotide-binding protein …; binding response (% of control), % at 10 µM; bead-based flow cytometry RGS16-Galphao binding, fluorescence; actives lie on both sides; AID 1441, 2008;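 active = below 25% or above 175%, edge rows of some plates excepted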;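 note: Galphao activated by GDP with aluminum fluoride before binding; 100% = wells without compound and 0% = beads without RGS; some results beyond the cut were filed as inactive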
# Target sequence (O15492 whole entry, looked up): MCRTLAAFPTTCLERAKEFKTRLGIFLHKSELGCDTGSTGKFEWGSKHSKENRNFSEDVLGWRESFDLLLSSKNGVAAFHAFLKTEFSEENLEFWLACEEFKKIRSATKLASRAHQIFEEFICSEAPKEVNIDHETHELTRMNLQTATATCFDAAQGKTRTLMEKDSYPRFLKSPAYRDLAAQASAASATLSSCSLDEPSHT
# Target sequence (P09471 whole entry, looked up): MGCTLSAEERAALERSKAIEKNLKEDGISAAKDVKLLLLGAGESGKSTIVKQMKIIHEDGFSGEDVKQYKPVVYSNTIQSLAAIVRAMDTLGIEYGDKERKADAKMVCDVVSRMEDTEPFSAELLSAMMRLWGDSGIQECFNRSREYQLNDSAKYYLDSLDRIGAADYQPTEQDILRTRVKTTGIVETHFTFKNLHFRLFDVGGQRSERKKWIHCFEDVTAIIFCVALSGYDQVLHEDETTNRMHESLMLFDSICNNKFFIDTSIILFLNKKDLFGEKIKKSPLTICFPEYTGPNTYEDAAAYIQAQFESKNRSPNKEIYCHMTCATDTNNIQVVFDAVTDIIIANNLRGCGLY
# Insulin prom inh – inhibitors of insulin promoter-driven GFP, primary screen, imaging, TRM-6 cells (human fetal islet line), eGFP reporter, cell count; reporter expression induced with tamoxifen; inhibition, % at 2 µM; actives 0.9% (n = 130,000); AID 1273, 2008;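 active = inhibition above the mean plus 3 SD, with well images judged a real hit on visual review, cut at about 60% in these data, passing the limit was not always enough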
# PKD1 kinase inh – inhibitors of human PKD1 kinase, biochemical, fluorescence polarization. PKD1 kinase fluorescence polarization assay. AID 797, 2007. actives 0.056% (n = 200,000). inhibition, %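 (about 10 µM by stock and volumes)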;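 active = inhibition of 50% or more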;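 note: controls were vehicle for no effect and a reference inhibitor for full effect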
# Insulin prom inh cell count – further read-out of Insulin prom inh, marked with its call; normalized cell count, %; measured here: cell count, toxicity; reference of the scale not given here;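 cells exposed to compound for 48 h; stained nuclei by imaging scaled within each plate; lower means fewer cells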
# HSV augment primary fold – further read-out of HSV augment, marked with its call; fold increase; compound at 10 µM; measured here: primary screen fold increase 10 uM; tested in PC3 cells;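 GFP signal in the first replicate; 1 = infected wells without compound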
# An asterisk follows results filed as active; i = inactive; . = not tested or not shown.
SMILES,HSV augment,HSV augment primary fold,GALR2 ag,RGS16-Gao,Insulin prom inh,Insulin prom inh cell count,PKD1 kinase inh
O=C(CN1C(=O)NC(Cc2ccccc2)C1=O)Nc1ccccc1 (configuration not stated),i,0.9,0.5,112,-19,107,-1
COc1cc(OC)cc(C(=O)Nc2ccc(-n3cnnn3)c(C)c2)c1,i,0.86,-2.1,101,.,.,2
CCCCC(=O)Nc1ccc(N2CCN(S(C)(=O)=O)CC2)cc1,i,0.99,-1.7,98,44,154,-10
O=C(NC1CC1)C1=C[C@@H](c2ccccc2)C[C@@H](OCCCCO)O1,i,0.91,.,94,.,.,2
CCOC(=O)c1ccc(S(=O)(=O)N2CCN(C3CCCC3)CC2)cc1,i,0.97,.,97,-6,100,-2
COc1ccccc1C(=O)N/N=C(\C)c1ccc(NC(=O)C2CC2)cc1,i,0.83,-0.9,100,0,108,-10
COCCCN1C(=O)c2ccc(C(=O)Nc3cccc(OC)c3)cc2C1=O,i,0.92,-2.1,99,-8,115,-3
O=C(O)CNc1ccc(S(=O)(=O)C(F)(F)F)cc1[N+](=O)[O-],i,0.99,.,104,.,.,.
O=C(CN1CCC(n2nnc3cc(C(F)(F)F)ccc32)CC1)Nc1ccc2c(c1)CCC2,i,0.92,-1.8,100,-22,95,-5
CCOC(=O)c1[nH]c2cc3c(cc2c1NC(=O)CN1CCC2(CC1)OCCO2)OCO3,i,0.95,-0.4,143,.,.,-2
Cn1c(C(=O)NCCCN2CCN(c3ccccc3F)CC2)cc2c(=O)[nH]c3ccccc3c21,i,0.63,-1.9,100,.,.,3
Cc1ccc(S(=O)(=O)N2CCCCC2)cc1NC(=O)COC(=O)c1ccc(O)cc1,i,0.9,.,101,.,.,-3
CCN(CC)S(=O)(=O)c1cccc(-c2nnc(SCC(=O)NC)n2CCc2ccccc2)c1,i,0.85,-2.1,111,7,99,-10
COc1cc(C(=O)NCC(c2ccccc2)N(C)C)ccc1OCC(=O)N1CCOCC1 (configuration not stated),i,1,.,104,9,52,-3
OCCSc1nc(-c2ccccc2)nc2c1CCC2,i,1,-0.9,15*,61,61,1
O=C(NC1CC1)C1CCN(S(=O)(=O)c2cc(Cl)ccc2Cl)CC1,i,1.1,.,102,.,.,8
CCC(C)NC(=O)CN(c1cc(C)cc(C)c1)S(=O)(=O)c1c(C)[nH]c(=O)[nH]c1=O (configuration not stated),i,1,.,103,.,.,.
Cc1csc(SCC(=O)c2ccc(S(=O)(=O)N3CCOCC3)cc2)n1,i,1,-3.2,98,.,.,-3
Cc1ccc(C)c(N2CCN(C(=O)CC3Sc4ccccc4NC3=O)CC2)c1 (configuration not stated),i,0.86,0.2,107,.,.,14
COc1ccc(C(=O)OCC(=O)NC(=O)CCSc2ccccc2)cc1,i,1.2,-1.9,97,-6,127,0
O=C(O)c1ccccc1NC(=S)NC(=O)c1sc2ccccc2c1Cl,i,0.93,.,96,8,127,0
Cc1ccc(C(=O)N/C(=C\C=C\c2ccccc2)C(=O)NCc2ccco2)cc1,i,0.89,-1.4,104,-21,106,-2
CCn1nc(CC(=O)Nc2nnc(CC(=O)N3CCOCC3)s2)c2ccccc2c1=O,i,1,-2.0,101,31,82,2
O=C(c1cncc(Br)c1)N1CCc2ccccc2C1,i,1.1,-1.9,101,86*,43*,-3

# Copied from the list:
# HSV augment primary fold with O=C(NC1CC1)C1=C[C@@H](c2ccccc2)C[C@@H](OCCCCO)O1 → 0.91
# PKD1 kinase inh with COc1ccccc1C(=O)N/N=C(\C)c1ccc(NC(=O)C2CC2)cc1 → -10
# HSV augment primary fold with COc1cc(OC)cc(C(=O)Nc2ccc(-n3cnnn3)c(C)c2)c1 → 0.86
# PKD1 kinase inh with O=C(CN1C(=O)NC(Cc2ccccc2)C1=O)Nc1ccccc1 (configuration not stated) → -1
# RGS16-Gao with O=C(O)CNc1ccc(S(=O)(=O)C(F)(F)F)cc1[N+](=O)[O-] → 104
# Insulin prom inh cell count with COc1ccc(C(=O)OCC(=O)NC(=O)CCSc2ccccc2)cc1 → 127

# Continued.
SMILES,HSV augment,HSV augment primary fold,GALR2 ag,RGS16-Gao,Insulin prom inh,Insulin prom inh cell count,PKD1 kinase inh
CCC(C)(C)NC(=O)C(c1ccc(C)o1)N(C(=O)c1csnn1)c1cccc(F)c1 (configuration not stated),i,1.1,-1.6,101,-410,48,-5
Cc1nc2c(sc3nc4c(cc32)COC(C)(C)C4)c(=O)o1,i,1,-1.6,99,.,.,-6
CCC1CCCCN1C(=O)CCc1nnc(Cc2c[nH]c3ccccc23)o1 (configuration not stated),i,0.94,.,104,22,148,-4
Cc1cc(C)n(/N=C\c2c(O)ccc3ccccc23)c(=O)c1C(N)=O,i,0.98,-0.5,99,-79,71,2
COc1ccc(N(CC(=O)NCc2ccc3c(c2)OCO3)S(=O)(=O)c2c(C)nn(C)c2C)cc1,i,1,-0.4,102,.,.,6
CCCOc1ccc(C(=O)Nc2ccc(C)cc2[N+](=O)[O-])cc1,i,0.93,-0.2,108,10,130,-1
COC(=O)/C(=C\Nc1ccc(Cl)c2ccccc12)c1ncc(C(F)(F)F)cc1Cl,i,0.93,-3.1,104,-79,76,4
CCOC(=O)C1=C(C)Nc2ccccc2N=C1NC(=O)c1cccc(S(=O)(=O)N(C)C)c1,i,1.2,-0.6,104,.,.,-1
COc1ccc(-c2cc(-c3ccccc3O)[nH]n2)cc1,i,0.98,-2.0,104,-27,96,-4
CCN(CC(=O)Nc1ccccc1C(=O)OC)S(=O)(=O)c1ccc(OC)cc1,i,0.88,-2.4,106,.,.,-8
O=C(NCCSc1ccccc1)c1ccco1,i,1,-1.8,107,-29,99,-9
Oc1ccccc1-c1nc(NCc2ccco2)c2ccccc2n1,i,0.75,-1.2,99,.,.,-4
Fc1cccc2sc(Nc3nc4ccccc4s3)nc12,i,0.83,0.2,103,-20,153,-9
C=C(C)Cn1c(CCCNC(=O)CC)nc2ccccc21,i,0.81,-1.5,108,13,112,-10
COc1cccc(OC)c1C(=O)Nc1ccc(Cc2ccncc2)cc1,i,1.1,0.8,115,-7,107,-7
COc1ccc(OC)c(NC(=O)c2c(NC(=O)c3ccco3)sc3c2CCC3)c1,i,0.81,-2.6,101,59,140,-5
CC(C)NC(=O)c1cccc(Br)c1,i,0.97,-0.7,100,50,120,0
Cc1cc(C)nc(NS(=O)(=O)c2ccc(NC(=O)CN3C(=O)S/C(=C\c4ccccc4)C3=O)cc2)n1,i,0.9,0.1,102,3,108,-3
CCC(Sc1nc2ccccc2c(=O)[nH]1)C(=O)Nc1ccc(C(C)=O)cc1 (configuration not stated),i,0.85,.,116,0,27,-6
COc1ccc(-n2c(Cc3cccn3C)nnc2SCC(=O)Nc2cccc(OC)c2)cc1,i,0.82,-0.5,86,.,.,-3
Cc1[nH]c2ccccc2c1/C=N/Nc1ccccc1[N+](=O)[O-],i,0.87,.,99,.,.,7
Cc1ccc(C(=O)Nc2nc3ccccc3s2)s1,.,.,-1.9,91,.,.,0
CCN(CC(=O)NC(C)(C)C)C(=O)c1ccc2c(c1)S(=O)(=O)c1ccccc1C2=O,.,.,.,111,50,144,-9
COCc1cc(C)nc(SC)c1C#N,i,0.98,.,99,.,.,-2
CC(C)[C@@H](CO)NC(=O)c1ccc2c3n(nc2c1)-c1ccccc1CO3,i,0.9,.,101,.,.,.
Cc1ccc(N2C(=O)c3ccc(C(=O)NCCN4CCOCC4)cc3C2=O)cc1,.,.,-0.6,104,6,71,-6
COc1cc([C@H](Cc2ccccc2)NC(C)=O)oc(=O)c1,i,0.88,.,99,.,.,6
CC(C)(C)OC(=O)NCCCC[C@H](NC(=O)c1nc[nH]c1C(=O)N[C@@H](CCCCNC(=O)OC(C)(C)C)C(=O)OC(C)(C)C)C(=O)OC(C)(C)C,i,0.66,.,98,.,.,.
COc1ccc(/C=N/NC(=O)c2sccc2OCc2ccc(F)cc2)cc1OC,i,0.78,0.7,91,.,.,-4
N#CC1=C(N)Oc2c(oc(CO)cc2=O)C1c1ccccc1[N+](=O)[O-] (configuration not stated),i,1.2,.,97,.,.,.
CCCNC(=O)c1ccccc1NC(=O)c1ccccc1N(C)S(=O)(=O)c1ccc(C)cc1,i,0.85,-1.0,37,.,.,19
COc1ccc(-c2nn(-c3ccccc3)cc2CNC(C)Cn2cncn2)c(F)c1 (configuration not stated),i,0.99,.,113,.,.,6
Cn1nccc1C(=O)NCCN1C(=O)OC(C)(C)C1(C)O (configuration not stated),i,0.68,-1.0,99,.,.,7
COCC(C)NC(=O)/C=C/c1ccc(OC)cc1 (configuration not stated),i,1,.,103,.,.,-2
CS/C(=C/[N+](=O)[O-])Nc1cccc2c1C(C)CC2(C)C (configuration not stated),i,0.93,.,96,.,.,-4
N#C/C(=C(/O)CSc1nnc(Cc2cccs2)n1C1CCCCC1)c1nc2ccccc2[nH]1,i,1.1,-0.3,-53,-8,74,-2
COc1ccc(C2CC(=O)c3c(C)nc(N4CCN(c5ccccc5)CC4)nc3C2)cc1 (configuration not stated),i,1,-0.4,10,.,.,-16
COc1ccc(NCc2nnc(SCC(=O)c3ccc(C)cc3)o2)cc1,i,1,-2.1,199,7,138,0
COc1cc(/C=C/C(=O)O)cc(OC)c1OC,i,1,.,103,.,.,.
O=C(NNc1nc2ccccc2o1)c1ccccc1,i,0.97,.,102,.,.,.
CCC(CC)C(=O)Nc1ccc(C(=O)c2ccccc2)cc1,i,1,-1.9,110,23,97,1
O=C(CN1C(=O)C2CC=CCC2C1=O)NCc1cccs1 (configuration not stated),i,0.89,.,96,-28,135,-9
COCCN(C(=O)c1csnn1)C(C(=O)NC1CCCCC1)c1cccs1 (configuration not stated),i,1.1,-1.6,101,-1,43,-8
Cc1ccc(C)c(Cn2c(=O)n(-c3ccc(CC(=O)NCc4ccco4)cc3)c(=O)c3sccc32)c1,i,0.8,-1.1,120,.,.,-23
Cc1ccc2nc(SCc3nnc(-c4ccccc4Br)o3)[nH]c2c1,i,0.96,-1.8,103,-47,114,-2
C=CCNc1oc(-c2ccc(OCC)cc2)nc1C#N,i,1.1,-2.4,109,5,154,-10
Cc1nn(-c2ccccc2)c2c1C(c1ccccc1)C(C#N)=C(N)O2 (configuration not stated),i,0.94,-1.1,128,.,.,-8
CCc1ccc(NC(=O)Nc2ccc3c(c2)N(C)C(=O)CS3)cc1,i,0.75,-2.6,101,.,.,0

# Taken from the entries so far (2 entries):
SMILES,HSV augment,HSV augment primary fold,GALR2 ag,RGS16-Gao,Insulin prom inh,Insulin prom inh cell count,PKD1 kinase inh
Cc1nn(-c2ccccc2)c2c1C(c1ccccc1)C(C#N)=C(N)O2 (configuration not stated),i,0.94,-1.1,128,.,.,-8
CCc1ccc(NC(=O)Nc2ccc3c(c2)N(C)C(=O)CS3)cc1,i,0.75,-2.6,101,.,.,0

# More entries follow.
SMILES,HSV augment,HSV augment primary fold,GALR2 ag,RGS16-Gao,Insulin prom inh,Insulin prom inh cell count,PKD1 kinase inh
CC(=O)Nc1ccc(NS(=O)(=O)c2ccc(-c3csc(C)n3)s2)cc1,i,0.94,.,106,.,.,.
COc1ccc(/C=C/C(=O)Nc2ccc3nc4n(c(=O)c3c2)CCCC4)cc1OC,i,0.85,.,90,.,.,-1
C=CCNC(=O)CCCOc1cc(C)ccc1C,i,1.1,-3.1,76,-123,103,-8
CCNc1nc(NCC)nc(N(CC)C(N)=S)n1,i,0.47,.,100,.,.,.
Cc1ccc(NNC(=S)Nc2ccc(C(C)C)cc2)c(C)c1,i,1,-0.8,100,-10,101,-2
O=C(O)CCC(=O)NCc1ccc(C(=O)O)cc1,i,0.99,-3.2,102,21,152,0
COc1ccc(CCNc2nc(-c3ccco3)cc(C(F)(F)F)n2)cc1OC,i,1.2,-2.7,86,.,.,-2
OCC(CO)(CO)N=Cc1c(O)ccc2ccccc12,i,1.2,-1.8,106,29,106,-13
COC(=O)c1cc(Br)c(=O)n(CCc2ccc(F)cc2)c1,i,0.91,-0.6,97,19,71,0
COc1ccc2c(=O)cc(C(=O)O)oc2c1,i,0.95,.,108,-28,146,-2
COc1ccc(OCCSc2nc(N)cc(=O)[nH]2)cc1,i,0.92,.,100,.,.,-7
O=C(c1ccc(N2CCCC2=O)cc1)N1CCCCCC1,i,1,-1.2,94,.,.,-2
CCOc1ccc(S(=O)(=O)NNC(=S)Nc2ccc(Br)cc2)cc1,i,1,-1.0,238,-14,63,0
COc1ccc(NC(=O)C2Cc3ccccc3CN2C(=O)c2ccccc2)cn1 (configuration not stated),i,1,-0.3,101,.,.,5
Cc1ccc(S(=O)(=O)/N=C(/c2ccc(F)cc2)N2CCCCC2)cc1,i,1.2,-1.0,37,.,.,1

# Source: PubChem BioAssay (several laboratories)
